UUG fidelity – modulators of yeast start codon fidelity, primary screen, whole organism, S. cerevisiae, single point, plate reader. S. cerevisiae UUG-firefly luciferase reporter, luminescence/redox ratio. activity score, % at 18.7 µM. hit rate 0.13% among 350,000;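 active means replicate mean at a twofold rise or more, about +100% in these data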;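 further: firefly luciferase made from a UUG start codon reports start codon fidelity; reporter light over untreated wells divided by growth signal over untreated wells; some hits fall short of that in this replicate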
Env fusion inh – inhibitors of HIV-1 Env-driven cell-cell fusion, primary screen, HeLa-JRFL effector, CEM21 target cells, luciferase; inhibition, % at 12.3 µM; hit rate 1.1% among 360,000;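 active means mean replicate inhibition score of at least 50 and every replicate individually at or above 50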;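 further: 0% = plate neutral controls and 100% = maraviroc near 300 nM; one replicate is shown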
* = called active by the depositor; [ ] = remark or other dose.

Every second line gives: UUG fidelity	Env fusion inh
1	C[C@H](CO)N1C[C@H](C)[C@@H](CN(C)C(=O)NC2CCCCC2)Oc2ccc(NC(=O)Nc3ccc(F)cc3)cc2CC1=O
→ -3.6	-8.7[16.7 µM]
2	C[C@H](CO)N1C[C@H](C)[C@@H](CN(C)C(=O)C2CCCCC2)Oc2cc(Br)ccc2S1(=O)=O
→ 2.0	16.3[16.7 µM]
3	C[C@@H]1CCCCO[C@@H](CN(C)C(=O)Nc2ccc3c(c2)OCO3)[C@H](C)CN([C@H](C)CO)C(=O)c2cc(NC(=O)CCC(F)(F)F)ccc2O1
→ 2.2	11.3[16.7 µM]
4	Cc1noc(C)c1NC(=O)Nc1ccc2c(c1)C(=O)N([C@@H](C)CO)C[C@@H](C)[C@@H](CN(C)C(=O)C1CCCCC1)OCCCC[C@H](C)O2
→ 20.1	13.7[16.7 µM]
5	C[C@@H]1CN([C@@H](C)CO)C(=O)Cc2cc(NS(C)(=O)=O)ccc2O[C@@H]1CN(C)Cc1ccncc1
→ -17.3	-6.2[16.7 µM]
6	CC(C)NC(=O)Nc1cccc2c1O[C@H](CN(C)Cc1ccccc1)[C@H](C)CN([C@@H](C)CO)C2=O
→ -15.4	-2.0[16.7 µM]
7	C[C@H]1CCCCO[C@H](CN(C)CC2CCCCC2)[C@@H](C)CN([C@@H](C)CO)C(=O)c2cc(NC(=O)C3CCCCC3)ccc2O1
→ 18.1	19.7[16.7 µM]
8	Cc1noc(C)c1S(=O)(=O)N(C)C[C@@H]1Oc2ccc(N(C)C)cc2CC(=O)N([C@H](C)CO)C[C@@H]1C
→ 12.2	-0.4[16.7 µM]
9	C[C@@H]1CN([C@@H](C)CO)C(=O)c2cc(C#CC3CC3)cnc2O[C@H]1CN(C)C(=O)Cc1ccccn1
→ 7.0	-1.4[16.7 µM]
10	CNC[C@@H]1Oc2cc(C#CC3CCCC3)ccc2S(=O)(=O)N([C@@H](C)CO)C[C@@H]1C
→ -3.3	10.5[16.7 µM]
11	COc1ccc(S(=O)(=O)N(C)C[C@H]2OCCCC[C@@H](C)Oc3ccc(NS(=O)(=O)c4ccc(C)cc4)cc3C(=O)N([C@@H](C)CO)C[C@@H]2C)cc1
→ -3.8	-38.0[16.7 µM]
12	C[C@@H]1CN([C@@H](C)CO)C(=O)Cc2cc(NC(=O)NC3CCCCC3)ccc2O[C@H]1CN(C)Cc1ccccc1
→ -3.3	5.1[16.7 µM]
13	Cc1noc(C)c1S(=O)(=O)N(C)C[C@@H]1OCCCC[C@@H](C)Oc2ccc(NC(=O)Cc3ccccc3)cc2C(=O)N([C@H](C)CO)C[C@H]1C
→ 6.8	-25.3[16.7 µM]
14	COc1cccc(S(=O)(=O)N[C@@H]2CC[C@H](CCNC(=O)Nc3cc(F)ccc3F)O[C@@H]2CO)c1
→ 6.2	-8.5[16.7 µM]
15	COc1ccc(NC(=O)N(C)C[C@H]2Oc3ccc(NC(=O)Cc4cn(C)c5ccccc45)cc3CC(=O)N([C@@H](C)CO)C[C@H]2C)cc1
→ -3.6	37.9[16.7 µM]
16	C[C@H]1CN([C@@H](C)CO)C(=O)Cc2cc(NS(=O)(=O)c3ccc(F)cc3)ccc2O[C@@H]1CN(C)Cc1ccc(C(=O)O)cc1
→ -11.5	10.2[16.7 µM]
17	C[C@H]1CN([C@@H](C)CO)C(=O)c2cc(NC(=O)Nc3ccc(F)cc3)ccc2O[C@@H]1CN(C)S(C)(=O)=O
→ 11.3	14.0[16.7 µM]
18	Cc1ccc(S(=O)(=O)N(C)C[C@H]2OCCCC[C@H](C)Oc3ccc(NC(=O)Nc4ccc5c(c4)OCO5)cc3C(=O)N([C@@H](C)CO)C[C@H]2C)cc1
→ 14.1	6.5[16.7 µM]
19	C[C@@H]1CN([C@H](C)CO)C(=O)c2cc(NC(=O)Nc3ccc(F)cc3)ccc2O[C@@H]1CN(C)C(=O)Nc1ccccc1
→ 9.9	-0.1[16.7 µM]
20	CC(C)NC(=O)N(C)C[C@@H]1Oc2c(NS(=O)(=O)c3cn(C)cn3)cccc2C(=O)N([C@@H](C)CO)C[C@H]1C
→ 0.7	15.8[16.7 µM]
21	C[C@H](CO)N1C[C@H](C)[C@@H](CN(C)CC2CC2)OCCCC[C@H](C)Oc2ccc(NC(=O)Nc3ccc(C(F)(F)F)cc3)cc2C1=O
→ 14.5	1.2[16.7 µM]
22	C[C@H](CO)N1C[C@H](C)[C@H](CN(C)C(=O)Nc2ccc(F)cc2)Oc2cc(C#CC3(O)CCCC3)ccc2S1(=O)=O
→ -2.4	-28.0[16.7 µM]
23	CNC(=O)C[C@H]1CC[C@@H]2[C@H](COC[C@@H](O)CN2Cc2ccc(Cl)c(Cl)c2)O1
→ -6.8	4.1[16.7 µM]
24	C[C@@H]1CCCCO[C@H](CN(C)C(=O)CCC(F)(F)F)[C@H](C)CN([C@H](C)CO)C(=O)c2cc(NS(=O)(=O)c3cccs3)ccc2O1
→ 18.1	44.6[16.7 µM]
25	Cc1noc(C)c1S(=O)(=O)Nc1cccc2c1O[C@H](CN(C)Cc1ccc(Oc3ccccc3)cc1)[C@H](C)CN([C@H](C)CO)C2=O
→ -1.6	-7.3[16.7 µM]
26	O=C(C[C@@H]1C=C[C@@H](NC(=O)C2CCC2)[C@H](CO)O1)NCCCN1CCOCC1
→ -23.5	3.0[16.7 µM]
27	COc1ccc(-n2nnnc2C(c2ccccc2)N2CCN(C/C=C/c3ccccc3)CC2)cc1 (stereo not drawn)
→ 1.7	-15.0
28	COc1ccc(NC(=O)N(C)C[C@H]2OCCCC[C@@H](C)Oc3ccc(NS(C)(=O)=O)cc3C(=O)N([C@H](C)CO)C[C@H]2C)cc1
→ 6.7	14.7[16.7 µM]
29	COCC(=O)Nc1ccc2c(c1)[C@@H]1C[C@@H](CC(=O)NCc3cccc(F)c3)O[C@H](CO)[C@@H]1O2
→ -7.4	9.7[16.7 µM]
30	COCC#Cc1ccc2c(c1)O[C@H](CN(C)Cc1ccncc1)[C@@H](C)CN([C@H](C)CO)S2(=O)=O
→ -12.2	-1.9[16.7 µM]

Two compounds picked at random from the list so far:
Every second line gives: UUG fidelity	Env fusion inh
25	Cc1noc(C)c1S(=O)(=O)Nc1cccc2c1O[C@H](CN(C)Cc1ccc(Oc3ccccc3)cc1)[C@H](C)CN([C@H](C)CO)C2=O
→ -1.6	-7.3[16.7 µM]
29	COCC(=O)Nc1ccc2c(c1)[C@@H]1C[C@@H](CC(=O)NCc3cccc(F)c3)O[C@H](CO)[C@@H]1O2
→ -7.4	9.7[16.7 µM]

(more compounds)
Every second line gives: UUG fidelity	Env fusion inh
31	Cc1ccc(S(=O)(=O)NCC[C@@H]2CC[C@@H](NC(=O)c3cccnc3)[C@@H](CO)O2)cc1
→ -12.0	4.7[16.7 µM]
32	CN1C(=O)c2cc(NC(=O)Nc3ccc(Cl)cc3)ccc2OC[C@@H]2O[C@@H](CC(=O)O)CC[C@@H]21
→ -4.6	-13.3[16.7 µM]
33	O=C(C[C@H]1C=C[C@H](NC(=O)C2CC2)[C@H](CO)O1)NCCCN1CCOCC1
→ -11.3	-15.3[16.7 µM]
34	C[C@H]1CN([C@@H](C)CO)S(=O)(=O)c2ccc(C3=CCCCC3)cc2O[C@@H]1CN(C)C(=O)Cc1ccccc1
→ 0.0	15.1[16.7 µM]
35	C[C@@H]1CN([C@H](C)CO)C(=O)c2cc(NS(=O)(=O)c3ccc(Cl)cc3)ccc2O[C@@H](C)CCCCO[C@@H]1CN(C)Cc1ccncc1
→ 12.1	-4.5[16.7 µM]
36	Cc1noc(C)c1NC(=O)Nc1ccc2c(c1)C(=O)N([C@@H](C)CO)C[C@H](C)[C@@H](CN(C)S(=O)(=O)c1ccc(Cl)cc1)O2
→ 6.7	-22.1[16.7 µM]
37	COc1ccc(NC(=O)Nc2ccc3c(c2)C(=O)N([C@H](C)CO)C[C@H](C)[C@@H](CN(C)S(=O)(=O)c2ccc(F)cc2)OCCCC[C@@H](C)O3)cc1
→ -12.0	8.4[16.7 µM]
38	C[C@@H]1CCCCO[C@@H](CN(C)S(=O)(=O)c2cn(C)cn2)[C@@H](C)CN([C@@H](C)CO)C(=O)c2cc(NS(C)(=O)=O)ccc2O1
→ -8.1	24.1[16.7 µM]
39	Cc1noc(C)c1NC(=O)N(C)C[C@H]1OCCCC[C@H](C)Oc2ccc(N(C)C)cc2C(=O)N([C@H](C)CO)C[C@@H]1C
→ 7.3	-10.8[16.7 µM]
40	C[C@@H]1CCCCO[C@@H](CN(C)Cc2ccc(C(F)(F)F)cc2)[C@@H](C)CN([C@@H](C)CO)C(=O)c2cc(NS(=O)(=O)c3cn(C)cn3)ccc2O1
→ 28.6	-19.8[16.7 µM]

Structures listed so far with a COOH group, in the order listed:
Every second line gives: UUG fidelity	Env fusion inh
16	C[C@H]1CN([C@@H](C)CO)C(=O)Cc2cc(NS(=O)(=O)c3ccc(F)cc3)ccc2O[C@@H]1CN(C)Cc1ccc(C(=O)O)cc1
→ -11.5	10.2[16.7 µM]
32	CN1C(=O)c2cc(NC(=O)Nc3ccc(Cl)cc3)ccc2OC[C@@H]2O[C@@H](CC(=O)O)CC[C@@H]21
→ -4.6	-13.3[16.7 µM]

Later entries.
Every second line gives: UUG fidelity	Env fusion inh
41	Cc1noc(C)c1NC(=O)N(C)C[C@H]1OCCCC[C@H](C)Oc2ccc(NC(=O)Nc3ccccc3)cc2C(=O)N([C@H](C)CO)C[C@@H]1C
→ -9.0	-0.6[16.7 µM]
42	CCCNC(=O)N(C)C[C@H]1Oc2ncc(C#CCC(C)C)cc2C(=O)N([C@H](C)CO)C[C@@H]1C
→ 3.0	4.1[16.7 µM]
43	COc1cccc(S(=O)(=O)N(C)C[C@@H]2Oc3ncc(-c4cccc(F)c4)cc3C(=O)N([C@H](C)CO)C[C@@H]2C)c1
→ 15.5	25.8[16.7 µM]
44	C[C@H]1CN([C@@H](C)CO)C(=O)c2cc(C#CC3CCCCC3)cnc2O[C@@H]1CN(C)S(=O)(=O)c1ccc(F)cc1
→ -11.7	1.7[16.7 µM]
45	C/C=C/c1cnc2c(c1)C(=O)N([C@H](C)CO)C[C@@H](C)[C@H](CN(C)Cc1ccccc1)O2
→ 2.9	-10.0[16.7 µM]
46	COc1cccc(NC(=O)N[C@H]2C=C[C@H](CC(=O)N3CCCCC3)O[C@H]2CO)c1
→ 4.4	7.2[16.7 µM]
47	COc1ccc(CN(C)C[C@@H]2Oc3c(NC(=O)Nc4ccccc4)cccc3C(=O)N([C@@H](C)CO)C[C@H]2C)cc1
→ 19.2	-0.8[16.7 µM]
48	CNC[C@@H]1OCCCC[C@@H](C)Oc2ccc(NC(=O)CCC(F)(F)F)cc2C(=O)N([C@@H](C)CO)C[C@@H]1C
→ 16.8	-3.7[16.7 µM]
49	C[C@@H](NC(=O)C[C@@H]1CC[C@H](NC(=O)C2CC2)[C@@H](CO)O1)c1ccccc1
→ 7.8	-8.1[16.7 µM]
50	C[C@@H]1CN([C@@H](C)CO)C(=O)c2cc(NC(=O)Nc3ccc4c(c3)OCO4)ccc2O[C@H]1CN(C)C(=O)Nc1ccc2c(c1)OCO2
→ 12.3	2.8[16.7 µM]
51	COCC(=O)Nc1ccc2c(c1)C(=O)N(C)C[C@@H](OC)[C@H](C)CN(Cc1ccccc1)[C@H](C)CO2
→ 29.8	-16.8[16.7 µM]
52	COc1ccccc1-c1cnc2c(c1)C(=O)N([C@@H](C)CO)C[C@H](C)[C@H](CN(C)Cc1cccc(F)c1)O2
→ 7.4	13.2[16.7 µM]
53	Cc1noc(C)c1NC(=O)Nc1ccc2c(c1)C(=O)N([C@@H](C)CO)C[C@H](C)[C@H](CN(C)Cc1ccncc1)OCCCC[C@@H](C)O2
→ 9.6	-19.8[16.7 µM]
54	C[C@@H]1CCCCO[C@@H](CN(C)S(=O)(=O)c2cccs2)[C@@H](C)CN([C@H](C)CO)C(=O)c2cc(NC(=O)c3ccccc3)ccc2O1
→ -0.6	10.0[16.7 µM]
55	C[C@H](CO)N1C[C@H](C)[C@H](CN(C)S(=O)(=O)c2ccccc2)Oc2ccc(NC(=O)C3CC3)cc2CC1=O
→ 18.7	28.2[16.7 µM]
56	COc1ccc(S(=O)(=O)Nc2ccc3c(c2)C(=O)N([C@H](C)CO)C[C@@H](C)[C@H](CN(C)C(=O)Cc2ccccc2)OCCCC[C@H](C)O3)cc1
→ -0.2	-33.0[16.7 µM]
57	C[C@@H]1CN([C@@H](C)CO)S(=O)(=O)c2ccc(C#CC3CCCC3)cc2O[C@@H]1CN(C)Cc1cccnc1
→ 0.2	1.8[16.7 µM]
58	O=C(C[C@H]1C=C[C@@H](NC(=O)Nc2ccccc2F)[C@H](CO)O1)NCc1ccc(Cl)cc1
→ -1.8	0.4[16.7 µM]
59	Cc1noc(C)c1S(=O)(=O)N(C)C[C@H]1OCCCC[C@H](C)Oc2ccc(NC(=O)Nc3ccc4c(c3)OCO4)cc2C(=O)N([C@H](C)CO)C[C@@H]1C
→ -4.5	56.9*[16.7 µM]
60	C[C@H]1CN([C@@H](C)CO)C(=O)c2cc(NC(=O)C3CCCCC3)ccc2O[C@H]1CN(C)S(=O)(=O)c1cn(C)cn1
→ 3.0	15.6[16.7 µM]
61	N#C[C@@H]1[C@H](c2ccc(-c3ccccc3F)cc2)[C@@H](CO)N1C(=O)C1CCC1
→ 5.1	24.3[16.7 µM]
62	C[C@H]1CCCCO[C@H](CN(C)Cc2ccc(C(F)(F)F)cc2)[C@@H](C)CN([C@@H](C)CO)C(=O)c2cc(NC(=O)CCC(F)(F)F)ccc2O1
→ 13.6	10.4[16.7 µM]
63	CCNC(=O)C[C@H]1CC[C@H](NC(=O)C2CCOCC2)[C@H](CO)O1
→ -6.2	-16.2[16.7 µM]
64	CNC[C@@H]1OCCCC[C@@H](C)Oc2ccc(NC(=O)Nc3c(C)noc3C)cc2C(=O)N([C@@H](C)CO)C[C@H]1C
→ -0.3	-36.0[16.7 µM]
65	C[C@@H]1CN([C@H](C)CO)C(=O)c2cc(C#C[C@@H](C)O)cnc2O[C@H]1CN(C)C(=O)CN(C)C
→ 0.1	2.1[16.7 µM]
66	COc1ccc(S(=O)(=O)N(C)C[C@@H]2Oc3ccc(NS(=O)(=O)c4ccccc4)cc3C(=O)N([C@@H](C)CO)C[C@H]2C)cc1
→ 2.2	2.3[16.7 µM]

These rows are one share of the data; rates above refer to the full screens.
